High-throughput results: PubChem BioAssay, National Center for Advancing Translational Sciences (NCATS)
AmpC inh no det – inhibitors of E. coli AmpC beta-lactamase without detergent | P00811 | AmpC nitrocefin hydrolysis, absorbance 480 nm, no detergent; potencies from a single point are estimates | Potency, µM (doses to about 28.7 µM), for inactives: at the highest dose activity change, negative = inhibition | actives 1.8% (n = 71,000) | AID 585; active = falling curve, for most hits resting on a single point; inconclusive = weak or doubtful change; inactive = flat or rising curve; also: % of control where 0% means no effect; about half of the hits show no inhibition at the top dose; a quarter of the inactives give rising signals
Target sequence (P00811 whole entry, looked up): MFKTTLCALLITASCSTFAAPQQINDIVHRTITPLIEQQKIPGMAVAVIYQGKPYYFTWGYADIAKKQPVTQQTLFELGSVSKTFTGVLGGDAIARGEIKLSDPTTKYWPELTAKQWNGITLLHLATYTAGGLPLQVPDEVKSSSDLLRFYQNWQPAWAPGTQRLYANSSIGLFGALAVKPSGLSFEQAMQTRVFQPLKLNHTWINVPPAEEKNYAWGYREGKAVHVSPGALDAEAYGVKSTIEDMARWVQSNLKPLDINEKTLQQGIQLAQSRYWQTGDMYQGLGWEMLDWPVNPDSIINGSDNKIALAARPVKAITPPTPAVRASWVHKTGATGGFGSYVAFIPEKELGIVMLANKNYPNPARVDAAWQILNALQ
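AmpC in 20 mM phosphate buffer pH 7.0 was preincubated 15 min at room temperature with compounds. Nitrocefin (800 uM stock) was then added and hydrolysis followed at 480 nm every 20 s for 4 min.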
Active calls of the source: *; & = joins results of further samples; [ ] = dose if it differs, or a comment. Potency is read from the fitted curve at half-maximal effect. An excerpt; the hit share may differ from the screen's.

SMILES,AmpC inh no det
COc1cc2c(cc1OC)C1(CCCC1)CNC2C (stereo not drawn),-11%
Cc1ccccc1-c1cc(N2CCN(C)CC2)ncn1,0%
Cc1ccccc1NC(=O)CNc1ccccc1N1CCCCC1,21%
COc1ccc(Cn2cccc(NC(=O)Nc3ccc(C#N)cc3)c2=O)cc1,-3%
O[C@@H]1CCCC[C@H]1N1CCC(c2ccccc2)CC1,-11%&-20%
CCOC(=O)CNc1nc(C(C)(C)C)nc2c1nnn2Cc1ccccc1Cl,-2%
O=C(NCc1ccc(F)cc1)C(c1cccs1)N(C(=O)c1csnn1)C1CC1 (stereo not drawn),42%
Cc1cc(C)n2nc(SCC(=O)NCc3ccco3)nc2n1,2%
COc1ccc(C)cc1NS(=O)(=O)c1cccc2nonc12,-12%
CC(C)CCn1cnc2c([nH]c3cccc(Cl)c32)c1=O,-18%
CCCN(CCC)CCc1cccc2c1CC(=O)N2,-4%
COc1ccc2oc(C(=O)CCC(=O)O)c(N)c2c1,1%
Cn1nc(CC(=O)Nc2ncc(Br)s2)c2ccccc2c1=O,-10%
CCCN1C2CCCC1CC(NC(=O)c1ccccc1)C2 (stereo not drawn),-4%
CC(=O)Nc1cccc(-c2csc(NCc3ccco3)n2)c1,20%
c1ccc2c([C@@H]3CCN(CCN4CCOCC4)C3)c[nH]c2c1,15%[5.75 µM]
Cc1nnc2n1NC(c1ccc(Cl)cc1)C(C(=O)N(C)C1CCCCC1)S2 (stereo not drawn),61%
COC(=O)c1c(NC(=O)Cc2cccs2)sc(C(=O)N2CCCCC2)c1C,88%
COc1ccc(NC(=O)N2CC3(CCN(C(=O)c4ccco4)CC3)C2)cc1,-3%
CCOCCCn1c(=NC(C)=O)c(C(=O)OCC)cc2c(=O)n3ccccc3nc21,36%
COc1ccccc1C(=O)NCCCn1cc(Br)c(C)n1,29%
COc1cccc(-n2c(SCC(=O)NCCc3ccccc3)nnc2-c2ccoc2C)c1,64%
O=C(O)c1ccc(NC(=O)c2cccs2)cc1,10%
Cc1cccc(N2CCN(C(=O)c3ccc(Cl)c(S(=O)(=O)NCc4ccco4)c3)CC2)c1C,7%
CC(=O)OCC(=O)Nc1ccc(Cl)cc1Cl,-8%
O=C(CSc1nnc(NC2CCCCC2)s1)NC1CCS(=O)(=O)C1 (stereo not drawn),14%
CCCC(O)C(CC)CO (stereo not drawn),-4%
CC1Cc2nc(SCC(=O)Nc3nccs3)n(Cc3ccccc3)c(=O)c2S1 (stereo not drawn),-2%
Cc1cc(C2C(=O)CC(=O)CC2c2ccccc2)on1 (stereo not drawn),2%
O=C(NCC1CCCO1)c1ccccn1 (stereo not drawn),8%
Cc1cc(=O)n2c(C)n[nH]c2n1,-1%
C/C(=C\C(=O)c1ccc(C)o1)Nc1ccc2c(c1)OCO2,2%
O=C(CSc1nnc(-c2ccccn2)n1Cc1ccco1)c1ccc(-c2ccccc2)cc1,9%
COc1ccc(-n2c(=O)c3ccccc3n(CC(=O)NC3CCCC3)c2=O)c(OC)c1,-4%
CCOc1ccc(N2C(=O)c3cccnc3C2Nc2ccc(OC)cc2)cc1 (stereo not drawn),56%
O=C(CCCCCn1c(=O)[nH]c2ccccc2c1=O)NCCCN1CCN(c2ccccc2F)CC1,91%
O=C1c2cccc3cccc(c23)C(=O)N1c1nccs1,-4%
CN(C)CCCNCCCNC(=O)c1ccccn1,-8%
CC(C)CC1(C(=O)NCCN2CCOCC2)C=CCN1C(=O)c1ccccc1 (stereo not drawn),25%
CCCSc1nnc2[nH]c(=O)cc(N)n12,8%
COc1ccc(CCNc2oc(Cc3ccccc3)nc2C#N)cc1OC,31%
c1cn2cc(CN3CCOCC3)nc2s1,-5%
CS(=O)(=O)Nc1cccc(-c2nccc(NCc3cccs3)n2)c1,14%
CN1CCN(C(=O)c2cnn(-c3ccccc3)c2NC(=O)c2cccs2)CC1,2%
COc1c(F)c(F)c(C(=O)Nc2cccc(Cl)c2N2CCOCC2)c(F)c1F,5%
O=C(CCSCCc1ccccn1)Nc1nccs1,-11%
Cc1nc(CC(=O)Nc2nc(-c3ccccc3)cs2)cs1,-3%
CS(=O)(=O)Nc1ccc(C(=O)NCc2ccco2)cc1,-7%
O=C(CCCOc1ccccc1)N1CCN(c2ccccn2)CC1,49%
CCN(CC)CCn1c(=N)n(CCO)c2ccccc21,-18%
N#CCSc1nc2ccccc2c(=O)n1-c1ccccc1,-11%
O=C(NCc1ccco1)c1cc(S(=O)(=O)N2CCOCC2)ccc1Cl,8%
Cc1cc(N2CCCC2=O)cc(C)c1CN1C(=O)c2ccccc2C1=O,49%
CCC1(C)Cc2c(C#N)c(N)n(-c3ccccc3)c(=O)c2CO1 (stereo not drawn),18%
N#CCCn1c(=O)c(-c2ccc(Cl)cc2)nc2cnc(Oc3cccc(Cl)c3)nc21,-3%
COCCN1C(=O)C(=O)/C(=C(/O)c2ccc3c(c2)OCCO3)C1c1ccc(C(=O)OC)cc1 (stereo not drawn),-8%

Of the compounds above, these have a thiophene ring, fused or not:
SMILES,AmpC inh no det
O=C(NCc1ccc(F)cc1)C(c1cccs1)N(C(=O)c1csnn1)C1CC1 (stereo not drawn),42%
COC(=O)c1c(NC(=O)Cc2cccs2)sc(C(=O)N2CCCCC2)c1C,88%
O=C(O)c1ccc(NC(=O)c2cccs2)cc1,10%
CS(=O)(=O)Nc1cccc(-c2nccc(NCc3cccs3)n2)c1,14%
CN1CCN(C(=O)c2cnn(-c3ccccc3)c2NC(=O)c2cccs2)CC1,2%

The results go on:
SMILES,AmpC inh no det
COc1ccc(C(=O)N2CCC3(CCCN(Cc4cc(C(F)(F)F)cc(C(F)(F)F)c4)C3)CC2)cc1,-2%
COc1ccc(-c2c3c(=O)n(C)c(=O)n(C)c3cn2-c2cccc(OC)c2)cc1,60%
Cc1cccc2c1Oc1ccccc1[C@@H]2NC(=O)c1ccc([N+](=O)[O-])cc1,-2%[5.75 µM]
COc1cccc(C(=O)NCc2cn3ccsc3n2)c1,5%
Cc1ccc(CNC(=O)C2C3C=CC(C3)C2C(=O)O)cc1 (stereo not drawn),-3%
c1ccc(OCCCc2nc(-c3ccccn3)no2)cc1,9%
CCc1ccc(O)c(N=Cc2cccc(C)c2O)c1,-25%
COc1ccc(CN=CC2=C(O)CNC2=O)cc1OC,-4%
CC1=C(C(=O)OC(C)C)C(c2ccc(F)cc2)NC(=O)N1 (stereo not drawn),-5%
Cc1ccc(CCNC(=O)C2CCN(C(=O)N(C)C)CC2)cc1,15%
CC(=O)N1CCc2cc(C(=O)CN3CCC(C)CC3)ccc21,107%
CCOC(=O)C1C(c2ccccc2Cl)NC(=O)N(C)C1(O)C(F)(F)F (stereo not drawn),24%
Cc1ccc(-c2cc(-c3ccc(F)cc3)nc(N)c2C#N)o1,4%
O=C(c1cccc(F)c1)N1CCC2(CCCN(Cc3nccs3)C2)CC1,51%
COc1ccc(C(=O)CSc2nnc(-c3ccccn3)n2Cc2ccco2)cc1,79%
CCN1CCC2(CCNC2)C1 (stereo not drawn),-22%
Cc1ccccc1Cc1c(C)nc2nc(SCC(=O)NCc3ccco3)nn2c1C,72%
CCCn1c(CNC(=O)Cc2ccccc2)nc2ccccc21,11%
O=C(CSc1ncnc2nc[nH]c12)N1CCN(c2ccc(Cl)cc2)CC1,61%
COc1ccc2cc(C(c3nnnn3CCc3ccccc3)N3CCCC(C)C3)c(=O)[nH]c2c1 (stereo not drawn),33%
C[C@@H]1O[C@H](OC2[C@@H](O)[C@H](O)C(O)[C@H](O)[C@H]2O)[C@@H](N)C[C@@H]1N=C(N)C(=O)O (stereo partly drawn),1%[5.75 µM]
Cc1ccccc1NC(=O)c1cccc2nccnc12,21%
COC(=NC1CCCC1)C(O)c1c[nH]c2ccccc12 (stereo not drawn),10%
COc1ccccc1NC(=O)NC1(C(=O)N2CCC(O)CC2)CCCCC1,-12%
COC(=O)c1cccc(S(=O)(=O)N2CCCCC2)c1,1%
O=C(CCCn1c(=S)[nH]c2cc3c(cc2c1=O)OCO3)N1CCN(c2ccccn2)CC1,12%
COc1cccc(OC)c1C(=O)Nc1nnc(C(C)C)s1,4%
Cc1ccc(S(=O)(=O)NCC(=O)N(CC(=O)NCC2CCCO2)Cc2ccccc2)cc1 (stereo not drawn),32%
Cc1ccc2nc(Nc3ncc4c(n3)CCCC4=O)nc(C)c2c1,28%
O=c1[nH]cc(F)c(=O)[nH]1,-17%&9%
CCCn1c(=O)c2ccccc2n2c(SCc3c(C(=O)OCC)oc4ccccc34)nnc12,95%
COc1ccccc1-c1cc(NCc2cccs2)ncn1,-4%
CC(C)(C)SCCNS(=O)(=O)c1ccccc1,3%
COc1ccc(CC(NC(C)=O)C(=O)NC2CCN(C(=O)NCc3ccccc3)CC2)cc1 (stereo not drawn),11%
COc1ccc2nc(NCc3ccccc3)[nH]c2c1,-13%
O=C(O)c1[nH]c(=O)[nH]c(=O)c1CN1CCCCC1,3%[5.75 µM]
CSc1ccc(-c2c(C#N)c(N)nc3c2c(C)nn3-c2ccccc2)cc1,-11%
O=C(NC1CC1)c1ccc(-c2nc3ccccc3s2)s1,-6%
COC(=O)CCC(=O)Nc1ccc(OC)cc1,3%
CC(=O)c1cccc(-n2c(CCC(=O)O)ccc2-c2cccs2)c1,4%
CCOC(=O)C(C(=O)Nc1ccccc1)C1CCCCC1 (stereo not drawn),-4%
Cn1c(=O)c2c(nc(CN3CCOCC3)n2CCCc2ccccc2)n(C)c1=O,74%
O=C1C2C3C=CC(C3)C2C(=O)N1Cc1cccnc1 (stereo not drawn),1%
O=C(COC(=O)C12CC3CC(CC(O)(C3)C1)C2)N1CCN(S(=O)(=O)c2ccc(Cl)cc2)CC1,123%
c1ccc(-c2ccc(N3CC4(CCNCC4)C3)cc2)cc1,82%
Cc1ccc(NC(=O)NC(=O)N(c2ccccc2)S(C)(=O)=O)cc1,-19%
CCOC(=O)c1c(C)n(C)c2ccc(OCC(O)Cn3nc(C)cc3C)cc12 (stereo not drawn),122%
CCOc1cc(C(=O)Nc2cnccn2)cc(OCC)c1OCC,33%
COC(=O)C1CCN(C(=O)CN2C(=O)NC(CCc3ccccc3)C2=O)CC1 (stereo not drawn),15%
N#Cc1cc2c(=O)n3ccccc3nc2n(CCCN2CCOCC2)c1=O,-4%
O=C(Nc1ccc(Cl)cc1)c1ccc2c(c1)OCO2,-7%
O=C(NCCCN1CCC(Cc2ccccc2)CC1)C1CC(=O)N(C2CCCC2)C1 (stereo not drawn),42%
CCn1c(SCc2nc3ccccc3nc2C)nnc1-c1cccs1,71%
CCCc1[nH]nc2c1C(c1ccc(OC(=O)N3CCOCC3)c(OC)c1)C(C#N)=C(N)O2 (stereo not drawn),49%
Cc1onc(-c2ccccc2)c1C(=O)Nc1ccc2c(c1)OCCO2,5%
COc1ccccc1CN1CC[C@@]2(CCCN(C(=O)c3ccco3)C2)C1,1%

Five compounds picked at random from those above:
SMILES,AmpC inh no det
N#Cc1cc2c(=O)n3ccccc3nc2n(CCCN2CCOCC2)c1=O,-4%
COc1ccccc1CN1CC[C@@]2(CCCN(C(=O)c3ccco3)C2)C1,1%
CCn1c(SCc2nc3ccccc3nc2C)nnc1-c1cccs1,71%
O=C(Nc1ccc(Cl)cc1)c1ccc2c(c1)OCO2,-7%
COC(=O)C1CCN(C(=O)CN2C(=O)NC(CCc3ccccc3)C2=O)CC1 (stereo not drawn),15%

Later entries:
SMILES,AmpC inh no det
O=C(NC1CC2CCCC(C1)N2S(=O)(=O)c1ccccc1)c1ccccc1 (stereo not drawn),9%
Cc1cc(NC(=O)CSc2nccn2-c2ccc(Cl)cc2)no1,12%
CN(C#N)c1nc(N2CCOCC2)nc(N2CCOCC2)n1,8%
CCOC(=O)c1sc(NC(=O)CCSC)nc1C,3%
O=c1oc2ccccc2cc1C1=Nn2c(nnc2-c2cccnc2)SC1,3%
COc1ccc(NC(=O)c2oc3ccccc3c2NC(=O)c2ccco2)cc1,4%
CCn1c(SCC(=O)c2ccc(Cl)s2)nnc1-c1cccs1,6%
COc1ccc(CN(C(=O)c2ccccc2OC)C2CCS(=O)(=O)C2)cc1 (stereo not drawn),13%
O=C1NC(=O)C2(COC3(CCCC3)OC2)S1,-12%
N[C@@H](CSC(=O)c1ccccc1)C(=O)O,4%[5.75 µM]
CCCC(=O)Nc1ccc(N2CCCCC2)cc1,2%
CC(=O)Nc1cccc(NC(=O)C2CCCN2C(=O)Nc2ccc(C)cc2)c1 (stereo not drawn),-3%
Cc1cc(=O)[nH]c(/N=C(/NC(=O)c2ccccc2)Nc2ccc3c(c2)OCCO3)n1,89%
Cc1ccc(N2CCN(CC(O)COC3CCCCC3)CC2)cc1 (stereo not drawn),41%
Cc1nnc(NC(=O)CSc2nnc(Cc3cccn3C)n2C)s1,20%
O=S(=O)(c1ccc(NC2CCCCC2)cc1)N1CCOCC1,24%
CCC(c1nnnn1Cc1ccc2c(c1)OCO2)N1CCN(c2ccc(F)cc2)CC1 (stereo not drawn),70%
Cc1nc(N2CCOCC2)c2nc(-c3ccccc3)n(CCCN3CCCCC3C)c2n1 (stereo not drawn),39%
COc1ccc(-c2nc3cnc(N(C)C)nc3n(C)c2=O)cc1,-6%
CCCCCCCC(=O)OCC(COC(=O)CCCCCCC)OC(=O)CCCCCCC,-5%
